VDR inhibitor = blocks the human vitamin D receptor. AID 504847. P11473. VDR-SRC2-3 peptide fluorescence polarization, 2 h. Potency, µM, for the others: max response, negative = inhibition, hits mostly inhibitors. actives 0.93% (n = 400,000); active = well fitted inhibition curve with a large enough effect; inconclusive = small, poorly fitted or top-dose-only effect, or another doubt; inactive = no such curve, though single readings can be large or run the other way; also: series mostly up to about 120 µM
Target sequence (P11473 whole entry, looked up): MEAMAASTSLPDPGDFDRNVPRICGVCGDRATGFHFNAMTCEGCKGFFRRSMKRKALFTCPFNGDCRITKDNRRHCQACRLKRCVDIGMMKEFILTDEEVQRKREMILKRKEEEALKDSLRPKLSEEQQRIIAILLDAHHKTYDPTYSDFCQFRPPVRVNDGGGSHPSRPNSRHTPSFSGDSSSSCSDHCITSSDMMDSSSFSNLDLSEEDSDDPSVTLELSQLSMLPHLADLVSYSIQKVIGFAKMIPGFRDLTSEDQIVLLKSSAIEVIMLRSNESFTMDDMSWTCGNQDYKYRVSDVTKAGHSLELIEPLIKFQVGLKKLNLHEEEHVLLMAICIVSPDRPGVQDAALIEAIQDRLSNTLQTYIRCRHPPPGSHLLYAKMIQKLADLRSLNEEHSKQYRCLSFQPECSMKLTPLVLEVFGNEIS
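Measured by FP: displacement of SRC2-3 coactivator peptide from VDR by library compounds, following a two-hour ambient incubation.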
* = called active by the depositor; ? = inconclusive; & = joins results of further samples. % is scaled to controls: 0 for no effect and ±100 for the full control effect; potency is read from the fitted curve at half-maximal effect. Some of the compounds tested; count on the stated rates, not on these rows.

The opening 4 entries (preview)
SMILES	VDR inhibitor
CCc1ccc(N2CC(C(=O)OCC(=O)Nc3ccc([N+](=O)[O-])cc3)CC2=O)cc1 (centres undefined)	6%
Fc1ccc([C@@H]2Nc3ccccc3[C@@H]3C=CC[C@@H]32)cc1	-11%
O=C1CN(C(=O)COc2ccccc2)C(c2ccc(F)cc2)c2cc(Br)ccc2N1 (centres undefined)	-2%
CS(=O)(=O)c1cccc(-c2nnc(NC(=O)c3ccc4c(c3)OCCO4)o2)c1	8%

The list itself, from the first entry:
SMILES	VDR inhibitor
CCc1ccc(N2CC(C(=O)OCC(=O)Nc3ccc([N+](=O)[O-])cc3)CC2=O)cc1 (centres undefined)	6%
Fc1ccc([C@@H]2Nc3ccccc3[C@@H]3C=CC[C@@H]32)cc1	-11%
O=C1CN(C(=O)COc2ccccc2)C(c2ccc(F)cc2)c2cc(Br)ccc2N1 (centres undefined)	-2%
CS(=O)(=O)c1cccc(-c2nnc(NC(=O)c3ccc4c(c3)OCCO4)o2)c1	8%
Cc1nn(C)c(C(=O)NNC(=S)NC2CCCCC2)c1Cl	-4%
CCCCN(C(=O)C1CCCC1)c1c(N)n(Cc2ccccc2)c(=O)[nH]c1=O	-15%
CC1(C)CC(=O)c2cnc3c(C#N)cnn3c2C1	0%
C[C@]12O[C@H](C[C@]1(O)CO)n1c3ccccc3c3c4c(c5c6ccccc6n2c5c31)CNC4=O	-7%
COc1c(F)c(F)c(C(=O)O)c(Nc2cccc(C)c2)c1F	-1%
Cc1cc2c(cc1NS(=O)(=O)c1ccc(Br)cc1)n(C)c(=O)c(=O)n2C	5%
C=CCNC(=O)c1onc(CSc2ccccn2)c1C(=O)NCC=C	14%
CCC(=O)NC(c1ccc(Cl)cc1Cl)c1ccc2cccnc2c1O (centres undefined)	28%
CC1CCC(NC(=O)CCNC(=O)c2ccc(Br)cc2)CC1 (centres undefined)	-10%
COc1ccc(CCN2C(=O)CC(N3CCN(C/C=C/c4ccccc4)CC3)C2=O)cc1OC (centres undefined)	13%
Cc1c(OCC(=O)N2CCC(C(=O)NCCCC(=O)O)CC2)ccc2c1oc(=O)c1ccccc12	-25%

Entries shown so far with an aryl methoxy group (two):
SMILES	VDR inhibitor
COc1c(F)c(F)c(C(=O)O)c(Nc2cccc(C)c2)c1F	-1%
COc1ccc(CCN2C(=O)CC(N3CCN(C/C=C/c4ccccc4)CC3)C2=O)cc1OC (centres undefined)	13%

Additional compounds follow:
SMILES	VDR inhibitor
O=C(COc1ccc(N2CC(C(=O)O)CC2=O)cc1)Nc1cccc(C(F)(F)F)c1 (centres undefined)	17%
Cc1cc(NC(=O)CSc2nnc(CNC(=O)c3ccc(F)cc3)o2)no1	-6%
CC(=O)NC1C(Oc2ccc(C)cc2)OC2COC(c3ccco3)OC2C1O (centres undefined)	-15%
Cc1ccc(NC(=O)COC(=O)c2cc(Cl)ccc2Cl)c(Br)c1	8%
CCOC(=O)c1c(C)c(-c2ccccc2)n(CC(=O)NC2CCCCCC2)c1C	2%
CCc1sc(C(C2C(=O)CC(C)(C)CC2=O)C2C(=O)CC(C)(C)CC2=O)cc1[N+](=O)[O-]	13µM*
O=C(OCC(=O)N1CCOCC1)c1ccc(Cl)c(S(=O)(=O)N2CCc3ccccc32)c1	-4%
COc1ccc(Nc2nc(C)nc3c2oc2ccccc23)c(OC)c1	0%
COC(=O)c1ccc(N=Cc2c(-c3ccccc3)[nH][nH]c2=O)cc1	9%
CCCc1ccc(OCc2ccc(C(=O)NN)o2)c(OC)c1	0%
O=C(Nc1cccc(S(=O)(=O)NC2=NCCC2)c1)C1CCC1	-1%
CC1=C/C(=C/N(C)c2ccccc2)C(=O)S1	?
COc1ccc(S(=O)(=O)Cc2ccc(C(=O)N3CCN(c4cccc(C)c4)C(C)C3)o2)cc1 (centres undefined)	-1%
COCCNC(=O)Cn1cc2c(n1)CCCCC2	-30%
COc1cc(/C=N/N2C(=O)c3ccccc3C2=O)ccc1O	4%
O=S(=O)(/C=C/c1ccccc1)Nc1ccc2c(c1)OCO2	18%
CCCn1c(SCC(=O)NC(=O)Nc2ccc(C)cc2C)n[nH]c1=O	1%
COCCNc1ncnc2ccc(-c3ccc(C(=O)N(C)C)cc3)cc12	10%
CSc1cccc(NC(=O)C(C)NS(=O)(=O)c2ccc(F)cc2)c1 (centres undefined)	-6%
COc1ccc(-c2nc(SCC(=O)Nc3ccccc3)c(-c3ccc(F)cc3)[nH]2)cc1OC	-3%
Cn1cc(CN2CCC(n3nccc3NC(=O)CCCc3ccccc3)CC2)cn1	6%
CCC(C)c1ccccc1N1CC(C(=O)N2CCN(S(=O)(=O)c3ccc(F)cc3)CC2)CC1=O (centres undefined)	-7%
CCOc1ccc(CN(C)CCc2ccccn2)cc1	4%
COc1ccc(OC)c(C2=NOC(C(=O)N3CCN(c4ccccc4)CC3)C2)c1 (centres undefined)	5%
Cc1ccc(-n2nnnc2CNC(=O)c2ccccc2F)cc1C	15%
O=C(NCc1ccccc1)c1ccc(Oc2ccc(C(=O)NCc3ccccc3)cc2)cc1	-6%
O=C(COC(=O)/C=C/c1ccccc1Cl)NCCNC(=O)COC(=O)/C=C/c1ccccc1Cl	-7%
COc1ccc(CCNC(=O)CCN2C(=O)[C@@H]3Cc4ccccc4CN3C2=O)cc1	5%
c1ccc(-c2nnc3n2CCCC3)cc1	-16%
COc1ccc(NC(=O)/C(=C\c2ccc(F)cc2)NC(=O)c2ccco2)cc1	5%

The closing 2 entries of the part above are carried over, then new ones follow.
SMILES	VDR inhibitor
c1ccc(-c2nnc3n2CCCC3)cc1	-16%
COc1ccc(NC(=O)/C(=C\c2ccc(F)cc2)NC(=O)c2ccco2)cc1	5%
Cc1cccc(NC(=O)CNC(=O)CN2C(=O)NC3(CCCCC3C)C2=O)c1C (centres undefined)	-26%
O=[N+]([O-])c1ccc(S(=O)(=O)Nc2cccc(-c3ccc(N4CCCC4)nn3)c2)cc1	-19%
c1ccc2c(c1)oc1c(NCCCn3ccnc3)ncnc12	10%
CCOC(=O)Cc1c(C)nc2c(-c3ccccc3OC)c(C)nn2c1C	2%
Cc1cccc(NC(=S)/N=C(\N)Nc2nc(C)c3ccc(C)cc3n2)c1	-1%
NCC(O)CN(c1ccccc1)c1ccccc1 (centres undefined)	3%
CC(C)(C)NC(=O)CN(C(=O)CS(=O)CC(=O)Nc1ccc(F)cc1)c1cccc(F)c1 (centres undefined)	-16%
Cc1ccc(C2=C/C(=C\c3cccnc3)C(=O)O2)cc1	-1%
CC(C)[C@H]1CC[C@@H](C)C(C(=O)c2ccccc2)C1=O (some centres undefined)	-13%
Cc1ccc(C)c(Cn2c(C)c(CNCc3ccc(F)cc3)c(C(=O)O)c2C)c1	4%
CC(C)(C)CN1CCN(Cc2nc(-c3ccc(F)cc3)cs2)CC1CCO (centres undefined)	-3%
CCc1ccccc1NC(=S)NCc1ccc2c(c1)OCO2	6%
CCCCNC(=S)N(C)/N=C/c1c(F)cccc1F	-15%
Nc1ncnc2c1ncn2C1CCCC1	0%&2%
NC(CSC12CC3CC(CC(C3)C1)C2)C(=O)O (centres undefined)	-4%
CCOC(=O)C1CCCN(C(=O)c2cn(CC(C)C)c(=O)c3cc(OC)c(OC)cc23)C1 (centres undefined)	5%
O=C(c1cn(-c2ccccc2)nc1-c1ccncc1)n1nnc2ccccc21	-10%
CCn1cc(C2=NC(C)CO2)c2ccccc21 (centres undefined)	10%
CCN1c2ccccc2-c2nc3ccccc3n2C1c1ccncc1 (centres undefined)	-17%
CCCC(=O)NC(C)c1nc2ccccc2n1Cc1ccccc1 (centres undefined)	-9%
COc1ccc(Br)cc1/C=N/NC(=O)CN1CCCCC1	12%
Cc1cccc(OCC(=O)Nc2ccc(C(=O)O)cc2NC(=O)COc2cccc(C)c2)c1	-13%
O=C(NCCC(=O)N1CCCCCCC1)c1ccc(Cl)cc1	-12%
CCN(Cc1ccc2c(c1)OCCO2)C(=O)CN1C(=O)NC2(CCc3ccccc32)C1=O (centres undefined)	14%
O=C(CN1C(=O)NC2(CCCCCCC2)C1=O)Nc1ccc(OC(F)F)cc1	-1%
CC1(C)CC(C)(c2ccc(O)cc2O)N(c2cccc(Cl)c2)C(=S)N1 (centres undefined)	-8%
COC(=O)c1cc(-c2cccc([N+](=O)[O-])c2)c2c(=O)n(C)c(=O)n(C)c2n1	4%
NC(=O)c1nsc(C(=O)N(c2ccccc2)C(C(=O)NCc2ccc(F)cc2)c2ccc(O)cc2)c1N (centres undefined)	3%
Cc1ccc2c(c1)CCCN2C(=O)c1cc(C)on1	1%
COC(=O)c1ccc(CS(=O)(=O)c2ccc(C)cc2)cc1	0%
CCn1ccnc1[C@@H]1C[C@H]2CN(c3ccccc3OC)C(=O)[C@]23CCCN13	-4%
O=C(O)/C(=C\c1ccc(F)cc1)c1ccc(-c2ccccc2)cc1	-17%
O=C(c1cc(-c2cccc(Br)c2)nc2ccccc12)N1CCCC1	-7%
CCC(=O)Nc1ccc(Cl)c(NC(=S)NC(C)=O)c1	9%
CC(=O)c1cccc(N=c2scc(-c3ccc(S(=O)(=O)N4CCOCC4)cc3)n2CCO)c1	-9%
CCOC(=O)c1ccc(NC(=O)Nc2ccc(OC)c(OC)c2)cc1	19%
Nc1ncnc(SCc2c(F)cccc2Cl)n1	-4%
CCCS(=O)(=O)c1nc(S(=O)(=O)c2ccc(C)cc2)c(N2CCCC(C)C2)s1 (centres undefined)	0%
CCCCN([C@H](CO)C(C)C)S(=O)(=O)c1ccccc1Br	-23%
Cc1ccc(NC(=O)CCNS(=O)(=O)c2ccc3[nH]c(=O)oc3c2)cc1F	-11%
CCN(CC)C(=O)N1CCN(C(=O)N(CC)CC)CC1	-8%
CCC(=O)Nc1ccc2oc(-c3cccc(C)c3)nc2c1	?
Cc1onc(-c2c(Cl)cccc2Cl)c1COC(=O)c1ccc(Cl)cc1[N+](=O)[O-]	-2%
O=S(=O)(/N=C(/Sc1ccccc1)c1ccccc1)c1ccccc1	79µM*
Cn1c(=O)c2c(nc(N3CCNCC3)n2Cc2ccccc2Cl)n(C)c1=O	6%
CCn1cc(/C=C(\NC(=O)c2cc(OC)c(OC)c(OC)c2)C(=O)NCCCN2CCOCC2)c2ccccc21	0%
Cc1cc(C(=O)O)ccc1-n1c(C)cc(C=C2C(=O)c3ccccc3C2=O)c1C	-8%
COc1cc(/C=C/c2cccc[n+]2C)ccc1OCC(=O)Nc1ccccc1	-4%
Cc1ccc(CN(C(=O)c2ccccc2Br)C2CCS(=O)(=O)C2)o1 (centres undefined)	1%
Nn1c(SCc2ccccc2)nc2ccccc21	2%
O=C(NCCCn1ccnc1)c1ccc(N2CCCCC2)c([N+](=O)[O-])c1	-3%
O=C(Cn1nnc(-c2ccccc2)n1)NNC(=O)c1cccc([N+](=O)[O-])c1	-14%
Cc1nnc(NC(=O)Cn2c(=O)sc3ccccc32)s1	-20%
COc1cccc(NC(=O)CSC2=Nc3ccccc3C3=NC(CC(=O)NCCc4ccccc4)C(=O)N23)c1 (centres undefined)	0%
O=C(N/N=C/c1ccccn1)c1[nH]c2ccc([N+](=O)[O-])cc2c1-c1ccccc1	-18%
Cn1c(SCC(N)=O)nnc1C1CCN(S(=O)(=O)c2ccccc2C(F)(F)F)CC1	-2%
Cc1nnc(N2C(=O)c3oc4ccccc4c(=O)c3C2c2ccco2)s1 (centres undefined)	-6%
O=C(C1CC1)N1CCN=C1SCc1ccc(F)cc1	-19%
CN(C)S(=O)(=O)c1ccc2c(c1)nnn2CCNC(=O)Nc1ccc(Cl)cc1	7%
Cc1ccc(S(=O)(=O)c2cn(Cc3ccc(F)cc3)c3cc(F)c(F)cc3c2=O)cc1	7%

4 entries out of the list above, sorted by the value under VDR inhibitor, smallest number first:
SMILES	VDR inhibitor
Cc1nnc(NC(=O)Cn2c(=O)sc3ccccc32)s1	-20%
O=C(Cn1nnc(-c2ccccc2)n1)NNC(=O)c1cccc([N+](=O)[O-])c1	-14%
COc1cc(/C=C/c2cccc[n+]2C)ccc1OCC(=O)Nc1ccccc1	-4%
O=C(NCCCn1ccnc1)c1ccc(N2CCCCC2)c([N+](=O)[O-])c1	-3%

Carrying on:
SMILES	VDR inhibitor
Cc1cc([N+](=O)[O-])ccc1NC(=O)CSc1nncn1-c1cccnc1	-3%
O=[N+]([O-])c1cc(Cl)ccc1Nc1ccccc1	-2%
CCCNC(=O)C1Cc2cc(S(=O)(=O)N3CCCCCC3)ccc2N1C(C)=O (centres undefined)	8%
CC(C)CCNC(=O)C(c1ccco1)N(Cc1ccccc1)C(=O)c1snc(C(N)=O)c1N (centres undefined)	-13%
Cc1c(C=O)c2ccccc2n1CC(=O)N1CCc2ccccc2C1	-11%
CC(C)=CCC/C(C)=C/CNC(=O)C[C@H]1C[C@H](C(=O)N(C(C)C)C(C)C)[C@@]2(C)c3[nH]c4ccc(Cl)cc4c3CCN2C1=O	-12%
CCOC(=O)c1sc(NC(=O)CSc2nnc(C)s2)c(C(=O)OCC)c1C	-3%
COc1cccc(C=NNC(=O)CCCC(=O)NN=Cc2cccc(OC)c2)c1	-13%
CCOC(=O)N1CCC(NC(=O)CCc2nc(-c3ccccc3F)no2)CC1	23%
CN(CC(=O)Nc1cccc(F)c1)C(=O)CCc1nc2cc(S(=O)(=O)N3CCOCC3)ccc2n1C	-7%
O=C1/C(=C\c2ccccc2Cl)SC(=S)N1CCC(=O)N1CCCc2ccccc21	-17%
COc1ccc(-c2nc(CS(=O)(=O)CC(=O)NCCc3ccccc3)c(C)o2)cc1	9%
Nc1nc(-c2cc(O)ccc2[N+](=O)[O-])cc(-c2ccccc2)c1[N+](=O)[O-]	-5%
Cc1ccc2c(Cl)cc(Cl)c(OCC(=O)N(C(C)C)C(C)C)c2n1	5%
Cc1cccc(OCCNc2cc(N3CCN(C)CC3)ccc2[N+](=O)[O-])c1	23%
Cc1ccc(C(=O)N2CC(C)CC(C)C2)cc1NC1=NC2CS(=O)(=O)CC2S1 (centres undefined)	-11%
O=C(CCC(=O)N1CCOc2ccccc21)Nc1ccc(F)cc1F	-17%

Bioassay records deposited in PubChem by National Center for Advancing Translational Sciences (NCATS).
